ALR H2O2 inh – inhibitors of human ALR sulfhydryl oxidase, primary screen, biochemical, H2O2 detection, HRP-luminol luminescence, single point | FAD-linked sulfhydryl oxidase ALR (Homo sapiens), P55789 | purified ALR, DTT oxidation | inhibition, % (concentration not given with the values) | actives 3.8% (n = 290,000);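 active means mean and each replicate at 75% or more; inconclusive means only one of the two met; inactive means neither met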;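 further: stock transfer was 7.5 nL into about 7.5 µL; 0% = neutral wells and 100% = wells with inactivated enzyme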
rRNA inh HTS – reduced GFP signal of wild-type E. coli, primary screen, bacterial rRNA inhibitor project, GFP/RFP fluorescence, OD600, single point; E. coli WT GFP vs humanized-ribosome RFP mutants, 24 h; hits give low values; DMSO median 0, no signal -100; GFP signal change (wild-type ribosome), % (test concentration not listed); actives 1.6% (n = 350,000);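 active means significant combined selectivity score with lowered wild-type GFP, culture density cut under 30%, mutant RFP and density less affected; inactive means any of these conditions unmet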; further: one replicate is shown; some compounds called inactive have numbers as strong as hits
FGF22 binding – binders of human FGF22 protein, primary screen, FGF22 synaptogenesis inhibitor project, biophysical, thermal shift, single point | Fibroblast growth factor 22 (Homo sapiens), Q9HCT0 | recombinant FGF22 thermal shift, SYPRO orange fluorescence; percent of sucrose octasulfate shift, DMSO zero | calls only at 9.99 µM | actives 1.5% (n = 340,000) | AID 651658, 2012;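 active means melting point raised past a set limit in the mean and every replicate; inconclusive means no clear call; three in four hits are not shown here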
Target sequence (Q9HCT0 whole entry, looked up): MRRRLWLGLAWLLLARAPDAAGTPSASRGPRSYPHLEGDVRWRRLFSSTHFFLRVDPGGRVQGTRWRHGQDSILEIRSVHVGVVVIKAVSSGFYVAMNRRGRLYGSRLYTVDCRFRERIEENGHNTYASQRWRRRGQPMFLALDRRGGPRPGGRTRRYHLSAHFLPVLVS
UCH37 DUB inh – inhibitors of human UCH37 deubiquitinase, primary screen, biochemical, Ub-AMC cleavage, fluorescence. actives 0.33% (n = 330,000). Ubiquitin carboxyl-terminal hydrolase isozyme L5 (Homo sapiens), Q9Y5K5. inhibition, % (test concentration not listed). purified proteasome/UCH37;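 active means mean of two replicates above 20%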;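 further: 0% = compound-free wells with enzyme and 100% = wells lacking proteasome; stock transfer was 100 nL into about 20 µL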
Target sequence (Q9Y5K5 whole entry, looked up): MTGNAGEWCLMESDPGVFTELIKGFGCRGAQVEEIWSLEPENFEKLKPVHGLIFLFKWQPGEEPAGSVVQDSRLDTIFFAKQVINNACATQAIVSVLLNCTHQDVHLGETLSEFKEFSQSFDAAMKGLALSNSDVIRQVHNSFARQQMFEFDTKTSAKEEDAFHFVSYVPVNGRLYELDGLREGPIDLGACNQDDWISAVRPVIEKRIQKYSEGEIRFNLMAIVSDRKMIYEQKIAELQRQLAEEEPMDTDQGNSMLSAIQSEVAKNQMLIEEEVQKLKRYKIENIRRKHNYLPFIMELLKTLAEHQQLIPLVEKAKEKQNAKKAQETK
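Test system – human UCH37 enzyme supplied as purified proteasome complex · Incubation – 30 min preincubation with enzyme, 25 min cleavage at room temperature · Detection – AMC fluorescence from Ub-AMC cleavage, excitation 355 nm, emission 460 nm · Benchmarks – no-proteasome wells (full inhibition) and compound-free wells (no inhibition)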
HNF4A DNA FP – change in binding of human HNF4A to DNA, primary screen, biochemical, fluorescence polarization, FITC-DNA. Hepatocyte nuclear factor 4-alpha (Homo sapiens), P41235. 1 h. activity change, % at 10 µM. actives 0.3% (n = 360,000); in the data active means activity change above about 30%, passing the limit was not always enough;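 further: controls were the assay level and a saturating level of protein; the project sought stronger binding though the title names inhibitors; some compounds called inactive have numbers as strong as hits; positive values seem to mean higher polarization but the record does not say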
B2AR ag – beta2AR agonists driving receptor internalization, primary screen, cell-based, FAP fluorogen, flow cytometry; AID 504454, 2011; actives 0.43% (n = 340,000); Beta-2 adrenergic receptor (Homo sapiens), P07550; response, % (test concentration not listed); Am2.2-beta2AR cells; reference of the scale not given here;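 active means response above a set limit, near 3 SD of response in nonfluorescent compounds, cut at about 42% in these data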;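 further: stock transfer was 100 nL into about 11 µL; a reference agonist was the positive control; negative values mostly stem from fluorescent compounds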
Target sequence (P07550 whole entry, looked up): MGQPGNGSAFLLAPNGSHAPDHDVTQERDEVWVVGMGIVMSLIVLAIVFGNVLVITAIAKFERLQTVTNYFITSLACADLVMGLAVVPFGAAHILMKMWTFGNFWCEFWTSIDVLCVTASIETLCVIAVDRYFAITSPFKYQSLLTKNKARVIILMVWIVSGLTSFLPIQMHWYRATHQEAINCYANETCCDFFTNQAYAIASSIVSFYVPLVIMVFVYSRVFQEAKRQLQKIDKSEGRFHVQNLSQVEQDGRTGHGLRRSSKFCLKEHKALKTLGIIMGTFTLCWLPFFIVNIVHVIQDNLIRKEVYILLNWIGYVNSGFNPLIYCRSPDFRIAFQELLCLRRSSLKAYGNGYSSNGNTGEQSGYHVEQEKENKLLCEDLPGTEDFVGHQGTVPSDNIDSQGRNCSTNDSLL
Ecoli growth – E. coli growth inhibition, primary screen, OD600; OD600 absorbance (no concentration beside the values); actives 0.21% (n = 330,000); Escherichia coli growth, 23 h; hits give low values;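 active means OD600 absorbance below the run mean of sample wells minus 3.6 SD, in any replicate, cut at about 0.56 in these data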;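 further: stock transfer was 300 nL into about 60 µL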
rRNA inh HTS OD600 – further read-out of rRNA inh HTS, marked with its call; OD600 change, %; measured here: OD600 growth;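 optical density of the mix in the first replicate; 0 = DMSO median and -100 = no signal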
rRNA inh HTS RFP – also measured in rRNA inh HTS; calls as there; RFP signal change, %; measured here: RFP humanized mutant strains;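 first replicate; 0 = DMSO median and -100 = no signal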
* = called active by the depositor; i = inactive; ? = inconclusive; · = no result given; & = joins results of further samples. Some of the compounds tested, so the mix of outcomes need not match the whole.

SMILES	ALR H2O2 inh	rRNA inh HTS	rRNA inh HTS OD600	rRNA inh HTS RFP	FGF22 binding	UCH37 DUB inh	HNF4A DNA FP	B2AR ag	Ecoli growth
COc1ccc(CCN2CC(C(=O)NCCc3ccc(C)cc3)CC2=O)cc1OC (configuration not stated)	·	0.7	2.8	2.8	i	3.0	-6.6	1.5	0.734
CCOc1ccc(N(C)Cc2cc(=O)oc3ccc(OCC)cc23)cc1	-7.1	3.0	6.7	6.8	i	1.7	2.2	-0.7	0.697
COc1ccc(C(C(=O)NC2CCCCC2)N(CC2CCCO2)C(=O)CNC(=O)c2ccco2)cc1 (configuration not stated)	-1.5	·	·	·	·	2.3	1.5	-4.3	0.752
CC(=O)Oc1ccc(C(=O)Nc2cccc(C(=O)Nc3ccccc3C(=O)O)c2)cc1	73.8	-7.3	-0.1	0.6	·	4.1	-0.6	-1.9	0.683
CC(C)(C)NC(=O)c1cc2c(ccc3ccccc32)oc1=O	-10.9	4.1	9.9	-1.1	i	-190.4	0.9	-9.8	0.672
COc1ccc(-c2nc(N3CCCC3)[nH]c(=O)c2C#N)cc1	·	·	·	·	·	-1.0	-3.6	-2.8	0.724
CCCCN(CC)C(=O)CN(C)S(=O)(=O)c1cccc2nsnc12	-4.8	·	·	·	·	3.2	1.9	-1.2	0.686
CCC(C)NC(=O)C(=O)NCc1ccncc1 (configuration not stated)	4.2	·	·	·	·	1.4	2.4	7.6	0.701
ONC=Nc1cccc2nonc12	·	·	·	·	·	5.7	1.9	5.4	0.741
O=C(CNCCC1=CCCCC1)Nc1ccc(N2CCCCCC2)cc1	25.4	·	·	·	·	6.2	-2.1	40.9	0.596
COc1ccccc1-c1noc(-c2cc(OC)c(OC)c(OC)c2)n1	·	·	·	·	·	1.7	-2.0	6.0	0.658
O=C(O)c1ccc(Cl)c(S(=O)(=O)N(Cc2ccccc2)c2ccccc2Cl)c1	·	-26.1	-33.0	-8.5	i	3.2	-1.2	-7.6	0.671

Arranged by the number under rRNA inh HTS (ascending): some entries from above
structure,ALR H2O2 inh,rRNA inh HTS,rRNA inh HTS OD600,rRNA inh HTS RFP,UCH37 DUB inh,B2AR ag
CC(=O)Oc1ccc(C(=O)Nc2cccc(C(=O)Nc3ccccc3C(=O)O)c2)cc1,73.8,-7.3,-0.1,0.6,4.1,-1.9
CCOc1ccc(N(C)Cc2cc(=O)oc3ccc(OCC)cc23)cc1,-7.1,3.0,6.7,6.8,1.7,-0.7
CC(C)(C)NC(=O)c1cc2c(ccc3ccccc32)oc1=O,-10.9,4.1,9.9,-1.1,-190.4,-9.8

Continuation:
SMILES	ALR H2O2 inh	rRNA inh HTS	rRNA inh HTS OD600	rRNA inh HTS RFP	FGF22 binding	UCH37 DUB inh	HNF4A DNA FP	B2AR ag	Ecoli growth
COc1ccc2c(c1)NC(=O)CC(c1ccccc1)=N2	-5.5	·	·	·	·	4.4	-2.4	-17.7	0.63
CC1CCCCC1NC(=O)CN(C)S(=O)(=O)c1cccc2nsnc12 (configuration not stated)	1.1	·	·	·	·	7.1	-3.8	2.1	0.751
CN(Cc1ccccc1)C(=O)COC(=O)c1ccc(Cl)c(N)c1	-7.4	·	·	·	·	-32.8	-0.8	4.7	0.688
O=C(NC(=S)Nc1ccc(N2CCOCC2)c(Cl)c1)c1sc2ccccc2c1Cl	-10.0	-0.1	2.1	-5.9	i	6.1	1.8	-0.2	0.772
O=c1oc2ccccc2c(Nc2cccc(O)c2)c1[N+](=O)[O-]	8.9	·	·	·	·	5.3	3.5	-6.4	0.712
COCCn1c(N)c(N(Cc2ccccc2)C(=O)Cc2ccccc2F)c(=O)[nH]c1=O	·	19.2	2.8	1.8	i	-0.9	-3.1	11.6	0.71
Cc1ccc(C(=O)N2CCN(c3ccc(C(F)(F)F)cn3)CC2)o1	1.7	2.1	4.5	-1.0	i	3.5	1.6	1.4	0.704
COc1ccc(C(=O)Sc2ccc(Cl)cc2)cc1OC	-16.8	·	·	·	·	5.0	1.4	1.5	0.761
CCCCC1(C(=O)OCC)CC(CN2CCOCC2)OC1=O (configuration not stated)	-5.0	·	·	·	·	2.8	-2.3	7.9	0.683
Cc1cccc(-n2ccnc2SCC(=O)O)c1C	9.3	5.3	9.2	1.6	i	0.1	-0.6	1.2	0.708
COC(=O)CC1=NN(c2ccccc2)C(=O)/C1=C\c1ccc(OC)cc1	-10.2	·	·	·	·	2.4	0.9	17.0	0.723
Cc1cccn2c(=O)nc(SCC(=O)Nc3ccc4c(c3)OCCO4)nc12	33.1	1.6	3.2	1.2	i	6.4	-0.6	-9.2	0.599
Cc1csc(CN(C)C(=O)CC2C(=O)NCCN2Cc2ccc(-c3ccccc3)cc2)n1 (configuration not stated)	-10.2	0.8	-12.1	1.4	i	1.3	4.5	10.1	0.691
O=C(O)c1cc(N2CCOCC2)nc2ccccc12	0.6	16.2	10.1	-0.7	i	-179.6	1.2	-6.7	0.718
Cc1ccc(C(CNS(=O)(=O)c2cc(F)ccc2F)N2CCN(C)CC2)cc1 (configuration not stated)	·	11.0	7.7	-6.1	i	2.9	6.9	1.5	0.693
O=c1[nH]c(C2CCCN(S(=O)(=O)Cc3ccccc3)C2)nc2c1nnn2Cc1cccc(Cl)c1 (configuration not stated)	-3.8	1.0	6.0	0.9	i	-1.2	1.4	14.9	0.7
O=C(CSc1ccc(-c2ccco2)nn1)Nc1ccccc1	98.1*	6.2	7.6	16.4	i	-1.0	-0.2	-3.9	0.679
COc1cc(/C=C2\C(=N)N3N=C(S(C)(=O)=O)SC3=NC2=O)ccc1OCCOc1ccccc1C	?	-25.4	-50.7	-1.7	i	-3.9	2.3	12.7	0.657
CC(C)(C)CC(=O)N1CCC(c2nc3c(nnn3Cc3c(F)cccc3Cl)c(=O)[nH]2)CC1	-3.7	·	·	·	·	-0.7	2.1	-1.4	0.666
COc1ccc(CCNC(=O)c2c(C)nc3ccccn23)cc1	-15.9	4.3	6.3	-7.6	i	0.8	1.5	6.5	0.744
Cc1cc(C(=O)OCC(=O)NCCc2ccccc2)c(C)o1	-5.3	·	·	·	·	-1.0	-2.0	0.0	0.665
COc1ccc2nc(NC(=O)c3sc4nc(C)cc(C)c4c3N)sc2c1	3.0	4.0	3.7	-0.4	i	-185.2	10.1	21.5	0.69
O=C(NCc1ccc(Cl)nc1)c1csc(COCCO)n1	·	2.8	14.2	-0.7	i	·	0.2	·	·
COc1cccc(CN2CCN(Cc3cccc4c3OCO4)CC2CCO)c1 (configuration not stated)	-18.6	17.4	13.4	2.3	i	-0.5	-1.9	-1.7	0.682
CCn1c(CCn2ccnc2C)n[nH]c1=S	0.7	·	·	·	·	-0.5	2.5	-6.2	0.716
CC1(C)CCC(=O)N2CC[C@H]3c4cc5ccccc5nc4C[C@@H]1[C@H]32	·	2.4	-1.3	2.2	i	·	6.0	3.4	·
C[C@@H]1CN([C@H](C)CO)C(=O)c2cccc(NC(=O)c3ccncc3)c2O[C@@H]1CN(C)Cc1ccc(C(=O)O)cc1	-1.6	4.7&-6.4	12.2&1.1	2.0&-2.6	i	1.9	8.2	1.7	0.711
O=[N+]([O-])c1ccccc1N=NNc1ccccc1	·	2.8	5.0	-0.7	i	2.5	2.0	-2.4	0.691
CC1(C)CC(NC(=O)Cc2ccccc2[N+](=O)[O-])CC(C)(C)N1	-7.5	·	·	·	·	1.5	-0.2	0.3	0.649
COc1ccc(CNC(=O)CC2C[C@H](C(=O)N3CCOCC3)[C@@]3(CCC4CCCC4)c4[nH]c5ccccc5c4CCN3C2=O)cc1OC (some centres not stated)	·	0.5	7.9	-3.0	i	2.9	0.5	6.3	0.722
CC(=O)O[C@]1(C(C)=O)CC[C@H]2[C@@H]3C[C@H](C)C4=CC(=O)CC[C@]4(C)[C@H]3CC[C@@]21C	3.8	·	·	·	i	-0.5&3.0	-1.6&0.4	-2.8&13.7	·
COc1ccccc1NC(=O)Nc1ccnn1C1CCN(C(=O)c2cscn2)CC1	-18.6	-2.0	-3.0	-1.1	i	-0.7	4.5	-0.1	0.697
COc1ccc(C(=O)NCCc2c[nH]c3ccccc23)cc1	14.1	-9.6	-6.3	-0.1	i	1.5	0.2	-1.2	0.684
O=C(CNC(=O)Cc1ccc(Cl)cc1)NCc1ccco1	-12.2	12.2	2.6	-0.9	i	1.5	1.5	-7.0	0.742
Cc1cc(NS(=O)(=O)c2ccc(NC(=O)/C=C/c3ccccc3Cl)cc2)no1	7.1	-19.2	-20.7	-1.2	i	5.6	-1.9	4.9	0.694
Cc1nc2nc(C)c(NS(=O)(=O)c3ccc4c(c3)CCCC4)c(=O)n2[nH]1	·	-1.6	1.0	-1.7	i	0.2	0.2	12.6	0.672
Cc1ccc(NNC(=O)Nc2ccc(Cl)cc2)nn1	3.6	·	·	·	i	3.5	-1.1	-3.7	0.675
O=S(=O)(NCc1c(Cl)cccc1Oc1ccccc1)c1ccc(F)cc1	-9.3	-39.2*	-27.8*	-6.5*	i	-0.3	-0.2	1.3	0.613
NS(=O)(=O)c1ccc(CCNC(=O)COC(=O)CCc2c[nH]c3ccccc23)cc1	9.8	8.1	0.3	-1.6	i	2.0	9.5	0.6	0.651
O=C1[C@@H](c2ccccc2)CC[C@@H]2C=CC[C@H]3CCN1[C@@H]32	·	14.5	5.9	3.2	i	·	7.3	·	·
CCOc1ccc(C2C(C#N)=C(N)Oc3nc[nH]c(=O)c32)cc1 (configuration not stated)	12.4	10.3	-0.3	-0.4	i	-0.1	-1.6	-0.4	0.681
CC(C)=CCN1CCN(Cc2cccc3nccnc23)CC1CCO (configuration not stated)	-5.4	15.9	10.9	-5.2	i	6.2	0.0	21.2	0.68
CCN(CC)C(=O)Cn1cc(C(=O)C(=O)N2CCN(c3ccccc3)CC2)c2ccccc21	25.9	-1.7	5.4	3.9	i	3.7	3.8	0.0	0.668
Cc1sc2ncn(CCC(=O)O)c(=O)c2c1C	1.0	·	·	·	·	1.8	-0.5	-0.6	0.768
COC(=O)c1c(NC(=O)/C=C/c2ccco2)sc2c1CCC2	91.7*	·	·	·	i	3.4	11.8	2.2	0.683
CCc1ccccc1NC(=O)NC1CCCCC1	·	·	·	·	·	4.2	-0.4	-4.7	0.769
Cc1ccc2nc(NC(=O)c3ccc4ncsc4c3)sc2c1	-14.8	1.4	17.9	-1.7	i	-294.5	2.3	2.1	0.739
CC(C)c1ccc(C(=O)N2CCN(c3cnn(C)c(=O)c3Cl)CC2)cc1	-5.6	-12.6	-4.1	-0.1	i	1.4	-1.0	2.2	0.713
CC(C)C(NC(=O)c1ccc(Cl)cc1)C(=O)NC1=NCCS1 (configuration not stated)	-4.6	·	·	·	·	4.4	-0.3	-3.6	0.69
COc1ccc(-n2c(=S)[nH]c3cc(C(=O)N4CCN(c5ccccc5)CC4)ccc3c2=O)c(OC)c1	-0.1	3.7	12.9	-1.7	i	3.9	0.4	1.6	0.661
CCc1ccc(/C=C/C(=O)C2C(=O)c3ccccc3C2=O)cc1	72.9	·	·	·	·	0.7	-8.4	6.9	0.713

Individual results from the results shown:
CC(C)=CCN1CCN(Cc2cccc3nccnc23)CC1CCO (configuration not stated) in UCH37 DUB inh: 6.2
Cc1ccc(NNC(=O)Nc2ccc(Cl)cc2)nn1 in B2AR ag: -3.7

Screens (PubChem)
